PrP 5UTR inh: inhibition of PrP 5' UTR reporter expression. AID 488862, 2010. inhibition, % (no concentration beside the values). cell-based PrP 5' UTR mRNA reporter, plate reader. hit rate 0.35% among 340,000;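 active = every replicate at 50% or more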;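 also: 0 = median of the neutral control wells; tested in H4 reporter cells; numbers are from one replicate; inactives centre near -14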
ugtP null kill: growth inhibition of ugtP-null S. aureus, primary screen, RN4220 ugtP deletion, OD600 | hit rate 0.54% among 330,000 | growth inhibition, % (no concentration beside the values) | 16 h; some inactives read as strong as hits;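 active = z-score under -3 and OD600 up to 0.15 on both plates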;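 also: plate controls were untreated wells for no effect and antibiotic for full effect; wells of about 80 µL received 100 nL stock; the first replicate is given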
BJeLR viability: MLPCN primary cell-based screen for lethality selective to Ras in HRASV12 cells; hit rate 0.17% among 300,000; inhibition, % (test concentration not listed); BJeLR (HRASV12) viability, CellTiter-Glo ATP luminescence, 48 h; reference of the scale not given here;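 active = replicate mean above 50%; inconclusive = above 50% but judged a plate artefact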;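 also: 50 nL library stock added to about 25 µL; numbers are from one replicate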
Mtb hypoxia rep: PubChem AID 1159583. M. tuberculosis hypoxia-regulated fluorescent reporter, fluorescence. fluorescence inhibition, % (concentration not given with the values). hit rate 0.1% among 300,000;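 active = 35 to 45% if threefold the growth effect, above 45% if 1.5-fold the growth effect; inactive = the rest, general growth blockers included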;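 also: wells of about 50 µL received 100 nL stock; 0% = vehicle wells and 100% = reference inhibitor wells; whole bacteria with a GFP reporter of the hypoxia response; strong numbers were not always called active; many hits fall short of the cut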
Sa RN4220 lethal: growth inhibition of S. aureus RN4220, primary screen, OD600 | 16 h | inhibition, % (test concentration not listed) | hit rate 0.33% among 330,000;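 active = z-score of -3 or lower and OD600 up to 0.18 on both plates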;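 also: plate controls were untreated cells for no effect and reference antibiotic for full effect; stock transfer was 100 nL into about 80 µL; one replicate is shown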
Autofluor counter: compound fluorescence in toxin protease inhibitor counterscreen. fluorescence intensity (concentration not given with the values). hit rate 3.1% among 360,000. compound autofluorescence counterscreen, microsphere flow cytometry; hits give high values;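 active = at least 3 SD above the mean of all compounds, about 16000 in these data; inconclusive = too few beads counted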;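 also: 100 nL of 1 mM stock went into each well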
Mtb hypoxia rep growth: also measured in Mtb hypoxia rep; calls as there; growth inhibition, %; measured here: M. tuberculosis growth (absorbance);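 0% = vehicle and 100% = reference antibiotic; read after six days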
* hit, by the source's call; ? = inconclusive; . = not tested or not shown. Compounds were not picked by outcome (roughly 4% active in at least one column).

SMILES	PrP 5UTR inh	ugtP null kill	BJeLR viability	Mtb hypoxia rep	Mtb hypoxia rep growth	Sa RN4220 lethal	Autofluor counter
O=C(Nc1ccc(S(=O)(=O)N2CCCCCC2)cc1)c1ccco1	-47	-1	3	5	11	7.0	4270
O=C(NC1CCCc2ccccc21)C1CCN(c2c3c(nc4ncnn24)CCC3)CC1 (stereo not drawn)	-19	9	8	6	10	-2.1	16000
Cc1cc(-c2nc(-c3ccncc3)no2)ccc1[N+](=O)[O-]	-21	10	-8	13	5	6.8	3685
COc1cc(OC)c(C2CC(=O)N3CN(C)CSC3=C2C#N)cc1OC (stereo not drawn)	-6	-7	-2	2	11	-9.5	5861
O=C1CCCN1CCCNS(=O)(=O)c1cccs1	-15	2	.	2	-1	3.8	3626
CNC(=S)Nc1ccc(N2CCCC2)c(S(=O)(=O)Nc2ccc(OC)cc2)c1	-19	-3	.	-8	6	0.1	3053
CCCc1cc(=O)[nH]c(SCCCCN2C(=O)c3ccccc3C2=O)n1	-4	-6	4	-16	-9	2.3	3340
CCCOc1nc2c(c(=O)n(C)c(=O)n2C)n1Cc1cccc2ccccc12	-20	8	2	0	11	-4.5	11313
C=CCN(c1ccccc1)S(=O)(=O)c1cccc(C(=O)OCC(=O)NC2CC2)c1	-11	-2	-1	8	-6	10	4936
COC(=O)CS(=O)(=O)c1ccsc1C(=O)Nc1ccc(F)cc1	-1	6	1	3	0	4.9	1993
CCc1ccc(S(=O)(=O)NC2CCCCNC2=O)cc1 (stereo not drawn)	-4	0	-2	-18	-4	-0.5	3922
Cc1cc(C(=O)NCC(=O)OCC(=O)N(C(C)C)C(C)C)ccc1[N+](=O)[O-]	-3	11	-4	8	2	5.6	2463
Cc1cccc(NC(=O)NNC(=O)c2ccccn2)c1	-10	9	.	7	1	5.1	?
CCN(CC)CCn1c(SCC(=O)Nc2ccc(F)cc2)nc2c(sc3ccccc32)c1=O	.	4	2	-1	-1	-6.7	.
CCOC(=O)CC1=C(C(=O)OCC)C2(C(=O)N1CC(=O)OC)C(C#N)=C(N)Oc1ccccc12 (stereo not drawn)	-5	11	-7	9	-2	33	11068
CCOC(=O)CC(=O)Nc1nnc(CC(C)C)s1	-14	5	-8	.	.	2.5	3184
Cn1nc(-c2ccccc2)c(C(=O)NCC(=O)O)c1Cl	-34	-4	-2	8	1	4.9	4312
CCCCCC(=O)NC(=S)Nc1ccc(Cl)cn1	-18	38	1	20	12	-1.1	2359
Cc1nnc(NC(=O)CSc2nnc(C(C)NC(=O)c3ccccc3F)n2C)s1 (stereo not drawn)	-21	.	-7	.	.	.	3473
Cc1cc(NC(=O)C(C)SCC(=O)OC(C)C(=O)Nc2ccccc2C)no1 (stereo not drawn)	-44	-1	1	4	-1	0.3	5941
Cc1ccc(NC(=O)CN(C)C(=O)c2cccc(S(=O)(=O)NCc3cccs3)c2)cc1	-21	4	.	10	8	0.6	3557
COc1ccc(CCNC(=O)CCC(=O)N2CCOc3ccccc32)cc1OC	-8	1	0	-1	-2	2.7	5243
O=C(N/N=C/c1cnc(N2CCOCC2)s1)c1ccccc1	-27	.	-7	.	.	.	3255
O=C(Nc1ccc(N2CCOCC2)cc1)c1ccc(Cl)nc1	-14	-2	2	5	16	2.7	3377
O=C(COC(=O)c1ccc(Br)cc1)NCCc1ccccc1	-12	-3	-5	0	14	2.1	2450
Cc1ccc(S(=O)(=O)N2CCOCC2)cc1NC(=O)C1=NN(c2ccccc2)C(=O)CC1	-22	5	5	-1	-1	0.4	5633
CCSc1cc(N2CCCC2)nc(-c2ccc(Cl)cc2)n1	-12	0	.	-4	3	12	4276
N=C(N)SCc1nc2ccccn2c1Br	-23	-1	10	6	6	6.9	2065
Cc1cc(C)c(NC(=O)COC(=O)COc2ccc3c(C)cc(=O)oc3c2)c(Cl)c1	-16	7	.	-4	1	5.4	4294
O=c1[nH]nc2n1CCCCC2	-10	-1	1	.	.	-0.7	4721
COC(=O)C(C)N(C#N)c1nc(C)nc(C)n1 (stereo not drawn)	-18	0	1	7	6	0.6	7758
O=C(O)CCC(=NNC(=O)c1ccc(-c2ccccc2)cc1)c1ccccc1	.	2	.	13	5	2.3	.
COc1ccc(OCCCC(=O)OCC(=O)c2ccc3c(c2)NC(=O)CO3)cc1	-9	-1	-3	3	5	2.0	?
CCOC(=O)CSCc1nc(-c2ccc(Cl)cc2)oc1C	-9	3	-1	1	-1	5.8	4311
COc1ccc(-c2nc3ccccc3nc2-c2ccc(OC)cc2)cc1	-8	25	-2	13	11	4.1	4173
Cc1cc(C)nc(N2CCCC(C(=O)Nc3cccc(Cl)c3)C2)n1 (stereo not drawn)	-29	-7	-2	-4	0	-0.3	3473
O=C(COc1ccc2c(c1)oc(=O)c1ccccc12)N[C@@H](Cc1ccccc1)C(=O)O	-22	-8	3	.	.	7.8	6097
Cc1nc2ccc(NC(=O)N3CCOCC3)cc2s1	-23	4	7	.	.	0.3	2774
O=[N+]([O-])c1ccc(O)c(NC(=S)Nc2ccccc2)c1	-48	-19	2	4	6	-4.0	4173
CC(=O)N[C@@H](C)C(=O)N1CCC(n2nccc2NC(=O)CCCc2ccccc2)CC1	-28	-1	-3	-1	2	3.2	5443

Part of the list above in order of heavy-atom count, smallest number first.
SMILES	PrP 5UTR inh	ugtP null kill	BJeLR viability	Mtb hypoxia rep	Mtb hypoxia rep growth	Sa RN4220 lethal	Autofluor counter
Cc1cccc(NC(=O)NNC(=O)c2ccccn2)c1	-10	9	.	7	1	5.1	?
O=C(COC(=O)c1ccc(Br)cc1)NCCc1ccccc1	-12	-3	-5	0	14	2.1	2450
COC(=O)CS(=O)(=O)c1ccsc1C(=O)Nc1ccc(F)cc1	-1	6	1	3	0	4.9	1993
CCOC(=O)CC1=C(C(=O)OCC)C2(C(=O)N1CC(=O)OC)C(C#N)=C(N)Oc1ccccc12 (stereo not drawn)	-5	11	-7	9	-2	33	11068

Going on with the list:
SMILES	PrP 5UTR inh	ugtP null kill	BJeLR viability	Mtb hypoxia rep	Mtb hypoxia rep growth	Sa RN4220 lethal	Autofluor counter
COc1ccc(N(CC(=O)N2CCC(C(N)=O)CC2)S(=O)(=O)c2ccccc2)cc1	-14	-3	4	16	5	3.1	5324
CC(C)(Oc1ccc(CCNC(=O)c2ccc(Cl)cc2)cc1)C(=O)O	-6	2	-4	0	2	7.5	5973
O=C(O)c1cn(Cc2ccccc2)nc1-c1cccnc1	-17	11	0	3	3	0.1	3383
Cc1[nH]c2ccccc2c1C=NNC(=O)C1CC1(c1ccccc1)c1ccccc1 (stereo not drawn)	.	-22	.	10	6	6.9	.
Cc1c(/C=N/NC(=O)C2(O)c3ccccc3-c3ccccc32)cnn1C	-19	.	-8	.	.	.	2383
COc1ccccc1NC(=O)/C(=C/c1cccs1)NC(=O)c1ccco1	-23	7	5	2	4	3.8	.
Cc1cc(N=Nc2ccccc2C(=O)O)c(C)c(C)c1O	0	3	11	45*	9.9*	1.9	4778
COc1ccc(N2C(=S)NC3N2C(=S)NC3(C)c2ccccc2)cc1 (stereo not drawn)	-106	0	-6	-5	-4	-1.6	2634
O=C(c1cccc(C(F)(F)F)c1)C1CCCN(C(=O)Cn2cncn2)C1 (stereo not drawn)	-11	2	-7	-1	-6	1.4	5325
CC1=NN(C(=O)COc2ccccc2)C(O)(c2cccnc2)C1 (stereo not drawn)	-17	7	1	3	-5	6.4	2265
O=C(CN1CCN(c2ccccc2O)CC1)Nc1cc(S(=O)(=O)N2CCCC2)ccc1Cl	-23	12	.	9	8	5.9	8999
CCOCCCNC(=O)c1cn(CC(C)C)c(=O)c2cc(OC)c(OC)cc12	-16	8	-5	3	8	2.7	6015
CCCSc1ncnc2sc(C)c(C)c12	-26	45	1	6	6	11	4540
CCOC(=O)Cc1csc(NC(=O)Cc2cccs2)n1	-12	0	3	13	4	4.0	7129
Cc1noc(NS(=O)(=O)c2ccc(N/C=C\C(=O)c3ccc4c(c3)OCO4)cc2)c1C	-5	13	-1	10	11	7.6	15412
Cc1ccc(S(=O)(=O)NCC(=O)NC2CCCC2)cc1	-21	-1	7	2	8	1.9	23092*
CCCC(=O)Nc1cc(-c2nnc(OC)c3ccccc23)ccc1N1CCOCC1	-19	1	9	.	.	6.8	2461
CCN(CC)S(=O)(=O)c1cccc(C(=O)OCC(=O)Nc2ccc3c(c2)c2ccccc2n3CC)c1	-15	3	3	3	3	-0.9	2175
CCOc1ccc(-c2noc(CCC(N)=O)n2)cc1OCC	-18	-1	6	8	8	4.6	21943*
CC(OC(=O)CC1CC2CCC1C2)C(=O)Nc1ccc(C(N)=O)cc1 (stereo not drawn)	-8	1	.	-6	0	2.6	2830

Given as labelled records: entries from further up
Compound: CCN(CC)S(=O)(=O)c1cccc(C(=O)OCC(=O)Nc2ccc3c(c2)c2ccccc2n3CC)c1
  PrP 5UTR inh: -15
  ugtP null kill: 3
  BJeLR viability: 3
  Mtb hypoxia rep: 3
  Mtb hypoxia rep growth: 3
  Sa RN4220 lethal: -0.9
  Autofluor counter: 2175
Compound: CCOC(=O)Cc1csc(NC(=O)Cc2cccs2)n1
  PrP 5UTR inh: -12
  ugtP null kill: 0
  BJeLR viability: 3
  Mtb hypoxia rep: 13
  Mtb hypoxia rep growth: 4
  Sa RN4220 lethal: 4.0
  Autofluor counter: 7129
Compound: CCCSc1ncnc2sc(C)c(C)c12
  PrP 5UTR inh: -26
  ugtP null kill: 45
  BJeLR viability: 1
  Mtb hypoxia rep: 6
  Mtb hypoxia rep growth: 6
  Sa RN4220 lethal: 11
  Autofluor counter: 4540
Compound: CCCC(=O)Nc1cc(-c2nnc(OC)c3ccccc23)ccc1N1CCOCC1
  PrP 5UTR inh: -19
  ugtP null kill: 1
  BJeLR viability: 9
  Mtb hypoxia rep: .
  Mtb hypoxia rep growth: .
  Sa RN4220 lethal: 6.8
  Autofluor counter: 2461

Other records follow:
SMILES	PrP 5UTR inh	ugtP null kill	BJeLR viability	Mtb hypoxia rep	Mtb hypoxia rep growth	Sa RN4220 lethal	Autofluor counter
Cc1occc1-c1nnc(SC(C)C(=O)Nc2ccccc2F)o1 (stereo not drawn)	-87	7	.	-3	2	1.4	5020
NS(=O)(=O)c1ccc(CCNC(=O)COC(=O)/C=C/c2ccccc2Cl)cc1	-17	7	13	1	9	5.0	4073
CC(NC(=O)c1cccnc1Sc1ccccc1)c1ccc(S(N)(=O)=O)cc1 (stereo not drawn)	-3	1	6	3	6	1.9	6739
Cc1ccc(CN2CCNC(=O)C2CC(=O)N(Cc2c(C)nn(C)c2C)C2CC2)o1 (stereo not drawn)	-19	3	13	-3	2	2.1	4325
CCC1(C)Cc2[nH]c(=O)c(C#N)cc2CO1 (stereo not drawn)	-20	2	-7	7	-2	2.0	3814
CCCC1(c2ccccc2)NC(=O)N(CC(=O)Nc2ccc3c(c2)OCCO3)C1=O (stereo not drawn)	-16	1	.	2	0	1.9	.
COC(=O)C1=C(C)N(CC2CC2)C(=NCc2cccc(Cl)c2)N[C@H]1c1ccccc1	-23	.	0	.	.	.	6257
COC(=O)c1cccc(S(=O)(=O)N2CCC(NC(=O)Nc3cccc(F)c3)CC2)c1	0	5	1	3	-2	0.7	17460*
CC1(C)COC(c2cccc(C3=NC(C)(C)CO3)n2)=N1	-9	3	-9	5	5	3.9	2142
Cc1ccc(NC(=O)Nc2ncnc3nc[nH]c23)cc1	-46	5	-5	8	3	3.9	5107
Cc1onc(-c2ccccc2Cl)c1NC(=O)NCc1cccs1	-7	-5	-2	7	4	4.7	3820
CC1CCCC(C)N1CCCNC(=O)c1csc2c1CCCCC2 (stereo not drawn)	2	11	14	12	-2	3.1	6163
COc1cc(-c2nnc(SCc3ccccc3Cl)o2)cc(OC)c1OC	-16	-2	6	1	1	-12	2466
COc1ccc(OC)c2[nH]c(=O)c(CCNC(=O)CC(C)C)cc12	-29	-1	-4	.	.	0.2	2993
Cc1cc(NC(NC(=O)c2ccco2)(C(F)(F)F)C(F)(F)F)no1	9	8	-14	3	-1	2.4	17442*
